ClpP mod – qHTS Assay for Activators of ClpP; 1.9% of 340,000 active; Potency, µM (doses to about 57.5 µM), without a hit: at the highest dose activity change, negative = active; ATP-dependent Clp protease proteolytic subunit (Bacillus subtilis (strain 168)), P80244; AID 651965, 2013; purified B. subtilis ClpP, FRET peptide cleavage, 20 min; active = well fitted falling curve with a large enough effect; inconclusive = small, poorly fitted or top-dose-only effect; inactive = no such curve, though single readings can be large or run the other way; note: potency is the fitted concentration of half-maximal effect; the source files actives as falling curves though it sought activators and does not explain the sign; nearly all actives have a fitted effect of over 65% in size; many hits overshoot -100%
Target sequence (P80244 whole entry, looked up): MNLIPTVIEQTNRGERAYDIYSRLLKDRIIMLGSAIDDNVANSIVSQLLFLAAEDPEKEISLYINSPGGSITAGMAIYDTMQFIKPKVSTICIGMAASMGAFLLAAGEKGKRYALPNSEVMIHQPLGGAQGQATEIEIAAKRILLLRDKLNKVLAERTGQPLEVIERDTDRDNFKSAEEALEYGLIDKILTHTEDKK
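Purified B. subtilis ClpP, 10 microg/mL final in Tris/HCl pH8 with KCl, BSA, glycerol and Tween-20, cleaved an Abz/nitrotyrosine-quenched decapeptide. Fluorescence (ex 320, em 430) was read at 0 and 20 min at room temperature. Delta was normalized to 5.8 microM ADEP and DMSO/no-enzyme controls.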
Menin-MLL FL inh – qHTS Assay for Inhibitors Targeting the Menin-MLL Interaction in MLL Related Leukemias: Competition With Fluorescein Labeled MLL-derived Peptide; Fluorescence polarization, fluorescein-MLL peptide displacement from menin; FP activity change, % at 61.4 µM; 290,000 tested, under 10 active; AID 1766, 2009; inconclusive = falling polarisation curve, or a change in total fluorescence; inactive = total fluorescence flat and polarisation flat or rising; no compound was filed as active; the % refers to the polarisation; negative = inhibition;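 note: % of control where 0% means no effect; inhibitors lower the polarisation; unlabelled MLL peptide was the positive control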
gsp antagonist – qHTS for Antagonists of gsp, the Etiologic Mutation Responsible for Fibrous Dysplasia/McCune-Albright Syndrome: qHTS. Potency, µM (series often up to 76.9 µM), for inactives: at the highest dose activity change, negative = inhibition, most hits filed as inhibitors. 0.4% of 340,000 active. gsp-mutant cells, cAMP HTRF, 30 min; control for the full effect not named in the record; active = falling curve of any shape with a large fitted effect; inconclusive = falling curve, mostly with a smaller effect; inactive = flat or rising curve; cell line not stated here;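 note: intracellular cAMP measured with PDE inhibitor Ro 20-1724 present during compound exposure; potency is the fitted concentration of half-maximal effect; % is set by controls: 0 for no effect and ±100 for the full control effect; nearly all actives have a fitted effect of over 65% in size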
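G418-selected cells were plated in DMEM/10% FBS for 16-24 h at 37C, then treated with compounds plus the PDE inhibitor […] (300 uM solution added) for 30 min at 37C. Intracellular cAMP was measured by HTRF after 30 min lysis at room temperature.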
Sfp inh – qHTS Assay for Inhibitors of Bacillus subtilis Sfp phosphopantetheinyl transferase (PPTase); 4'-phosphopantetheinyl transferase ffp (Bacillus subtilis), Q9F4F7; Biochemical Sfp PPTase activity, qHTS; Potency, µM, for the others: max response, negative = inhibition, usual class: inhibitors; 3.5% of 310,000 active; active = well fitted inhibition curve with a large enough effect; inconclusive = small, poorly fitted or top-dose-only effect, or another doubt; inactive = no such curve, though single readings can be large or run the other way;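 note: the enzyme is Sfp with the accession as filed and its product quenches rhodamine fluorescence; potency is the fitted concentration of half-maximal effect; 0% = enzyme reaction without inhibitor and -100% = no enzyme wells; top concentration of the series not given in the record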
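Reaction rates are the 30-min fluorescence difference (ex 525, em 598 nm) in wells containing 15 nM Sfp, 5 uM rhodamine-CoA and 12.5 uM BHQ-2-YbbR at pH 7.6 with 10 mM MgCl2.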
D2 ag – Beta-Arrestin HTS for Positive Allosteric Modulators of the Human D2 Dopamine Receptor: Agonists | D(2) dopamine receptor (Homo sapiens), P14416 | DiscoveRx PathHunter D2 beta-arrestin, luminescence, 90 min; 100% = 57 uM dopamine signal | activation, % (concentration not given with the values) | 0.084% of 360,000 active | AID 624465, 2012; in the data active = activation above about 40%; inconclusive = about 15% to 40%; inactive = below about 15%; note: compound concentration not given in the record; the text of the record calls up to 30% inactive
Target sequence (P14416 whole entry, looked up): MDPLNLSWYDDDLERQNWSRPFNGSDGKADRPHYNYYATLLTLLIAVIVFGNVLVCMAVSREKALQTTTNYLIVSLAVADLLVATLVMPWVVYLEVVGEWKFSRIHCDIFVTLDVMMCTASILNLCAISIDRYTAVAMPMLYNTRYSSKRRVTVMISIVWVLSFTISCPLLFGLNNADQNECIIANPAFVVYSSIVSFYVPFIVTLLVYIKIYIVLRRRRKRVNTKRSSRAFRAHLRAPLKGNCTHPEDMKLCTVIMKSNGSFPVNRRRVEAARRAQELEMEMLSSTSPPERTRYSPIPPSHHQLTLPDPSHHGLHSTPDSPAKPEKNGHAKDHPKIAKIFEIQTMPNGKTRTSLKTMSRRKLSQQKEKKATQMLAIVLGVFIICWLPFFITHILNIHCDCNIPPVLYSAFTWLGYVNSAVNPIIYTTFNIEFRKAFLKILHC
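DiscoveRx PathHunter D2 beta-arrestin cells (2,100/well) attached overnight, then compound-stimulated 90 min at 37 C in HBSS/10 mM HEPES/0.1% Tween-20 buffer; beta-galactosidase complementation read by luminescence after 1 h at ambient temperature. Dopamine 57 uM final (EC100) as control.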
gsp ag – qHTS for Agonist of gsp, the Etiologic Mutation Responsible for Fibrous Dysplasia/McCune-Albright Syndrome: qHTS; AID 624287, 2012; Potency, µM (doses to about 76.9 µM), inactives show top-dose activation (cAMP increase), most hits filed as activators; 0.13% of 340,000 active; gsp mutant cells, cAMP HTRF, 30 min; control for the full effect not named in the record; active = well fitted activation curve with a large enough effect; inconclusive = small, poorly fitted or top-dose-only effect, or another doubt; inactive = no such curve, though single readings can be large or run the other way; cell line not stated here;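 note: phosphodiesterase inhibitor Ro 20-1724 added with compounds to block cAMP breakdown; potency is the fitted concentration of half-maximal effect; nearly all actives have a fitted effect of over 60% in size; about a fifth of the inactives were tested at one dose only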
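Cells stably selected in G418 were plated at 2000/well, grown 16-24 hr, then given compounds in DMSO with the PDE inhibitor […] (300 uM solution added) for 30 min at 37C; cAMP was read by HTRF.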
PINK1 modulator – A Quantitative High throughput Screen to Identify Chemical Modulators of PINK1 Expression. Potency, µM (series often up to 76.6 µM), inactives show at the top dose activation (PINK1 increase), hits mostly activators. PINK1 immunofluorescence, high-content cytometry, 24 h. 0.2% of 410,000 active; active = well fitted activation curve with a large enough effect; inconclusive = small, poorly fitted or top-dose-only effect; inactive = flat fitted curve, though single readings scatter; cell line not stated here;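 note: potency is the fitted concentration of half-maximal effect; % of control where 0% means no effect; nearly all actives have a fitted effect of over 65% in size; a mitochondrial uncoupler was the plate control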
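Stable cell line treated 24 h with compounds at 5 concentrations (CCCP controls), then fixed and immunostained for PINK1 plus nuclear and cell stains; PINK1 immunofluorescence quantified by laser-scanning microplate cytometry.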
Active calls of the source: *; & = joins results of further samples; [ ] = another dose, or the depositor's remark.

How did CCOC(=O)C1=C(C)NC(SCC(=O)O)=C(C#N)C1c1ccco1 (centres undefined) do in these assays?
ClpP mod: -17%; Menin-MLL FL inh: 0.9; gsp antagonist: 2%; Sfp inh: 4%; D2 ag: -0.5; gsp ag: 19%; PINK1 modulator: -1.1%

What do the screens show for `CN(C)c1ccc(/C=C/C=N/Nc2nc(N3CCOCC3)nc(N3CCOCC3)n2)cc1`?
ClpP mod: -0.8%; Menin-MLL FL inh: 14; gsp antagonist: inconclusive; Sfp inh: 5%; D2 ag: -1.0; gsp ag: -47%[inhibitor]; PINK1 modulator: 3.9%

How did CCC(CC)C(=O)Nc1ccc(Cl)c(Cl)c1 do in these assays?
ClpP mod: 1.7%; Menin-MLL FL inh: 0.6; gsp antagonist: -15%; Sfp inh: 8%; D2 ag: -11; gsp ag: -1%; PINK1 modulator: 13%

How did COc1ccc(NC(=O)CSc2nc3ccccc3nc2N2CCOCC2)c(OC)c1 do in these assays?
ClpP mod: -3.2%&-0.3%; Menin-MLL FL inh: 1.5; gsp antagonist: -5%; Sfp inh: 2%; D2 ag: -3.6; gsp ag: 19%; PINK1 modulator: 0.7%&-0.5%

What do the screens show for `CCOC(=O)C1CCN(S(=O)(=O)c2c(C)noc2C)CC1`?
ClpP mod: -0.9%; gsp antagonist: -15%; Sfp inh: 1%; D2 ag: 1.3; gsp ag: 0%; PINK1 modulator: 1.3%

How did c1ccc(C2c3[nH]c4ccccc4c3CCN2Cc2cccn2-c2cccnc2)nc1 (centres undefined) do in these assays?
Menin-MLL FL inh: -15; gsp antagonist: -11%; Sfp inh: -28%; D2 ag: -4.2; gsp ag: 17%; PINK1 modulator: -0.9%

What do the screens show for `O=C1CCCN1c1ccc(S(=O)(=O)NCc2ccco2)cc1`?
ClpP mod: -2.8%; Menin-MLL FL inh: 2.0; gsp antagonist: 19%; Sfp inh: 19%; D2 ag: -4.1; gsp ag: 29%; PINK1 modulator: 0.1%

What do the screens show for `O=C(Cn1c(C(F)(F)F)nc2ccccc21)N/N=C/c1ccco1`?
Menin-MLL FL inh: -0.7; gsp antagonist: 5%; Sfp inh: 13%; D2 ag: 5.1; gsp ag: 7%; PINK1 modulator: 6.4%

How did CC1(C(=O)NS(=O)(=O)c2ccc(Cl)s2)CCN1C(=O)C1(c2ccccc2)CCCC1 (centres undefined) do in these assays?
ClpP mod: 1.3%; D2 ag: 1.9; PINK1 modulator: 1.8%

How did N#CCCN(Cc1cccnc1)C(=S)Nc1ccc(OC(F)F)cc1 do in these assays?
ClpP mod: 0.0%; Menin-MLL FL inh: 4.4; gsp antagonist: 7%; Sfp inh: 4%; D2 ag: 1.1; gsp ag: -30%; PINK1 modulator: -1.4%

How did Cc1ccc(C(=O)N2CC(=O)NC(=O)C2)cc1 do in these assays?
Menin-MLL FL inh: -0.1; gsp antagonist: 12%; Sfp inh: 11%; D2 ag: -1.6; gsp ag: 7%; PINK1 modulator: -0.4%

What do the screens show for `CC1CN(C(=O)/C=C/c2ccc([N+](=O)[O-])s2)CC(C)O1` (centres undefined)?
Menin-MLL FL inh: 3.1; gsp antagonist: -7%; Sfp inh: 15%; D2 ag: -4.9; gsp ag: -15%; PINK1 modulator: 24%

How did COc1cc(C)nc(N(Cc2ccccc2)S(=O)(=O)c2ccccc2)n1 do in these assays?
ClpP mod: -2.7%; Menin-MLL FL inh: 2.0; gsp antagonist: -5%; Sfp inh: 2%; D2 ag: 0.5; gsp ag: -17%; PINK1 modulator: 5.3%

How did COc1ccc(NC(=O)CSc2nncn2N)c(OC)c1 do in these assays?
Menin-MLL FL inh: -0.6; gsp antagonist: -2%; Sfp inh: 6%; D2 ag: -4.5; gsp ag: -82%; PINK1 modulator: 0.6%

Results for CCOC(=O)CCNC(=O)N1CCCC(CCC(=O)N(C)CCc2ccccn2)C1 (centres undefined) ?
ClpP mod: -3.8%; Menin-MLL FL inh: 1.2; gsp antagonist: -4%; Sfp inh: 0%; D2 ag: -5.2; gsp ag: 28%; PINK1 modulator: -0.7%

How did O=C(O)CCn1[nH]c(=O)c2ccccc2c1=O do in these assays?
ClpP mod: -5.0%; Menin-MLL FL inh: 1.7; gsp antagonist: 21%; Sfp inh: 3%; D2 ag: -1.5; gsp ag: 2%; PINK1 modulator: 3.6%

What do the screens show for `Cc1cc(NC(=O)C(C)SCC(=O)OCC(=O)N(Cc2ccccc2)C(C)(C)C)no1` (centres undefined)?
ClpP mod: -29%; gsp antagonist: -5%; Sfp inh: 6%; D2 ag: 0.2; gsp ag: -5%[15.4 µM]; PINK1 modulator: -0.1%

How did CS(=O)(=O)C1=NN2C(=N)/C(=C\c3ccc(OC(=O)c4ccco4)cc3)C(=O)N=C2S1 do in these assays?
ClpP mod: -0.4%; Menin-MLL FL inh: inconclusive; gsp antagonist: 1%; Sfp inh: -22%; D2 ag: 0.3; gsp ag: -2%; PINK1 modulator: 0.2%

Results for O=C1CC(N(O)c2ccccc2)C(=O)N1Cc1ccccc1 (centres undefined) ?
ClpP mod: 1.4%; Menin-MLL FL inh: -0.7; gsp antagonist: 1%; Sfp inh: 0%; D2 ag: 6.5; gsp ag: 6%; PINK1 modulator: 0.9%

What do the screens show for `CCOc1ccc(S(=O)(=O)NCC(c2ccc3c(c2)OCO3)N2CCN(C)CC2)cc1` (centres undefined)?
gsp antagonist: 11%; D2 ag: -2.3; gsp ag: -4%[15.4 µM]; PINK1 modulator: 0.1%

Results for Cc1cc(O)c(C(C)C)cc1NC(=O)Nc1ccc([N+](=O)[O-])cc1 ?
gsp antagonist: 6%; D2 ag: -2.7; gsp ag: -19%; PINK1 modulator: 2.2%

How did OC(CNCC1CCCO1)Cn1c2ccccc2c2ccccc21 (centres undefined) do in these assays?
ClpP mod: -0.5%; Menin-MLL FL inh: 2.6; gsp antagonist: -7%; Sfp inh: 9%; D2 ag: -0.5; gsp ag: -23%; PINK1 modulator: 15%

What do the screens show for `CCCn1c(SCc2ccc(Cl)cc2)nc2c1c(=O)[nH]c(=O)n2C`?
ClpP mod: -1.0%; Menin-MLL FL inh: 3.3; gsp antagonist: 1%; Sfp inh: 8%; D2 ag: -3.2; gsp ag: 24%; PINK1 modulator: 1.1%

What do the screens show for `O=C(Nc1ccc2ccccc2c1)NC1CCS(=O)(=O)C1` (centres undefined)?
ClpP mod: -3.8%; Menin-MLL FL inh: -3.4; gsp antagonist: 8%; Sfp inh: 0%; D2 ag: -2.6; gsp ag: inconclusive; PINK1 modulator: -0.3%

How did COc1ccc(OC)c(C(O)c2nc3ccccc3n2C(C)C)c1 (centres undefined) do in these assays?
ClpP mod: -1.8%; Menin-MLL FL inh: 3.9; gsp antagonist: inconclusive; Sfp inh: 26%; D2 ag: -3.0; gsp ag: -5%; PINK1 modulator: -0.2%

What do the screens show for `CC1CCCCN1C(=O)CSc1nc2ccccc2n1CC(=O)N1CCc2ccccc21` (centres undefined)?
ClpP mod: 4.2%; Menin-MLL FL inh: -1.0; gsp antagonist: -10%; Sfp inh: 3%; D2 ag: -3.5; gsp ag: -34%[inhibitor]; PINK1 modulator: 4.7%[38.3 µM]

Results for Cc1ccc(CN2CCN(/N=C/c3ccc(C(F)(F)F)cc3)CC2)c(C)c1 ?
ClpP mod: inconclusive; gsp antagonist: 9%; Sfp inh: 0%; D2 ag: -5.4; gsp ag: 2%; PINK1 modulator: 29%

What do the screens show for `COc1ccc(C(=O)C2CCCN(C(=O)c3csc(C(C)=O)c3)C2)c(C)c1` (centres undefined)?
ClpP mod: -0.6%; gsp antagonist: -14%; Sfp inh: 10%; D2 ag: -3.1; gsp ag: 30%; PINK1 modulator: 2.7%

Results for CCOc1cc2[nH]c(=O)n(CCCCC(=O)NCc3ccco3)c(=O)c2cc1OCC ?
ClpP mod: 35µM*; Menin-MLL FL inh: 2.6; gsp antagonist: -3%; Sfp inh: -5%; D2 ag: -0.3; gsp ag: 9%; PINK1 modulator: -1.4%

What do the screens show for `Cc1ccsc1C(=O)N1CCC1(C)C(=O)NS(=O)(=O)c1ccc(Br)cc1` (centres undefined)?
ClpP mod: -0.7%; D2 ag: -2.3; PINK1 modulator: 0.9%

What do the screens show for `Cc1cc2ncn(CS(C)(=O)=O)c2cc1C`?
Menin-MLL FL inh: 0.9; gsp antagonist: 12%; Sfp inh: -6%; D2 ag: -2.6; gsp ag: 3%[15.4 µM]; PINK1 modulator: -0.2%

What do the screens show for `Cc1nc(NC(=O)C(Cl)Cl)sc1C(=O)N(C)C`?
ClpP mod: -1.2%; Menin-MLL FL inh: 8.7; gsp antagonist: -5%; Sfp inh: -25%; D2 ag: -1.9; gsp ag: 13%; PINK1 modulator: 0.6%

Results for Cc1ccc(-c2noc(CCC(=O)NCCc3ccccc3Cl)n2)cc1 ?
ClpP mod: -0.7%; Menin-MLL FL inh: 0.2; gsp antagonist: -3%[15.4 µM]; Sfp inh: 23%; D2 ag: -2.4; gsp ag: -25%; PINK1 modulator: 1.2%

How did COc1ccc(-c2noc(CCC(=O)Nc3cccc(C)c3)n2)cc1 do in these assays?
ClpP mod: -12%; Menin-MLL FL inh: 1.2; gsp antagonist: -2%; Sfp inh: 12%; D2 ag: -0.1; gsp ag: 13%; PINK1 modulator: -0.6%

Assay outcomes as filed in PubChem BioAssay.
